Screening results (PubChem BioAssay)
Vaccinia mCherry – vaccinia inhibition (mCherry reporter); Vaccinia virus mCherry reporter infection, fluorescence; about a quarter of the inactives have no number; Potency, µM (highest dose often 36.5 µM), for the others: top-dose activity change, negative = inhibition, most hits filed as inhibitors; hit rate 0.63% among 310,000; AID 720579; active = well fitted inhibition curve with a large enough effect; inconclusive = small, poorly fitted or top-dose-only effect; inactive = no such curve, though single readings can be large or run the other way; tested in A549 cells; also: nearly all actives have a fitted effect of over 35% in size; inactives centre near -10
Vaccinia Venus – vaccinia inhibition (Venus reporter) | Vaccinia virus Venus reporter expression, fluorescence | hit rate 0.46% among 330,000 | AID 720580 | Potency, µM (doses to about 36.5 µM), inactives show at the highest dose activity change, negative = inhibition, hits mostly inhibitors; active means well fitted inhibition curve with a large enough effect; inconclusive means small, poorly fitted or top-dose-only effect; inactive means no such curve, though single readings can be large or run the other way; tested in A549 cells; also: nearly all actives have a fitted effect of over 30% in size; inactives centre near -10
The depositor's hits bear a star; i = inactive; ? = inconclusive; nt = not tested or not shown; & = joins results of further samples; [ ] = remark or other dose. % is scaled to controls: 0 for no effect and ±100 for the full control effect; potency is read from the fitted curve at half-maximal effect.

SMILES	Vaccinia mCherry	Vaccinia Venus
CC(C)c1ccc(-c2noc(SCC(=O)N3CCCCC3C)n2)cc1 (configuration not stated)	-16%	-8%
CC(C)N1CC2=C(OC(N)=C(C#N)C2c2cccnc2)/C(=C/c2cccnc2)C1 (configuration not stated)	-5%	3%
NC(=S)N/N=C/c1cccc(Br)c1	?	0.89µM*
O=C(CSc1n[nH]c(=O)[nH]c1=O)N1CCCCCC1	-2%	-23%
COC(=O)C1=C2SCC(=O)N2C(N)=C(C#N)C1	i	-12%
CC(=O)c1c(C)[nH]c(C(=O)Nc2nc(-c3ccc(-c4ccccc4)cc3)cs2)c1C	i	-18%
O=C(CCCCn1c(=O)[nH]c2ccccc2c1=O)N1CCN(c2ncccn2)CC1	i	-12%
COc1cccc(Nc2nc(C(N)CCc3ccccc3)cs2)n1 (configuration not stated)	9%	-16%
Cn1cnnc1SCC(=O)Nc1sccc1C#N	-12%	-14%
COc1ccc(CSc2nc3ccccc3c(=O)n2CCCN2CCOCC2)cc1F	i	-10%
CCN(CC)C(=O)C1=C(C)N(CCCN2CCCC2=O)C(=O)C(CC(=O)NCCCN(C)C)C1 (configuration not stated)	-1%	-2%
CCOP(=O)(OCC)/C(C#N)=C/c1ccc([N+](=O)[O-])cc1	-15%	4%
CCc1nnc(NC(=O)CCC(=O)N2CCN(CCOc3ccc(C)cc3)CC2)s1	i	?
O=C(NNC(=S)Nc1ccc(Br)cc1)c1ccccc1	-25%	-16%
CCOC(=O)/C(C#N)=C/Nc1ccccc1OC(F)(F)F	-19%	-7%
CC1=C(C(=O)OCc2ccccc2)C(c2ccccn2)c2c(n(C)c(=O)n(C)c2=O)N1 (configuration not stated)	i	-5%&-15%
CSc1ccc(CCNC(=O)CCc2c(C)nc3cc(-c4ccccc4)nn3c2C)cc1	-13%	-10%
Cc1c(NC(=O)COc2ncnc3c(Cl)cc(Cl)cc23)c(=O)n(-c2ccccc2)n1C	-10%	-4%
Cc1ccc(C)c(N2CCN(S(=O)(=O)c3cn(C)c(C)n3)CC2)c1	-14%	-4%
COc1cc2c(cc1OC)CN(C1CC(=O)N(c3c(C)cccc3C)C1=O)CC2 (configuration not stated)	-5%	3%
CC(=O)OC1CC2C(C)(C)C(O)CCC2(C)C2CC[C@]3(C)C(=CC(=O)OC3c3ccoc3)C12C (some centres not stated)	-25%	-20%
Cc1c(CNCCCc2ccccc2)c(C(=O)O)c(C)n1Cc1cccc(Cl)c1	9%	1%
CC(C)(C)c1ccc(NC(=O)CC2(C(F)(F)F)OCCO2)cc1	-19%	-15%
CCOC(=O)C1CCC(CN(Cc2ccc(OC)cc2)S(=O)(=O)c2ccc(F)c(C(=O)Nc3c(C)cccc3C)c2)CC1 (configuration not stated)	-2%	5%
Cc1sc(NC(=O)Cc2ccc3c(c2)OCO3)nc1-c1ccc2c(c1)CCN2C(=O)c1cccc(F)c1	i	-15%
CCOC(=O)c1ccccc1NC(=O)CN(c1ccccc1)S(=O)(=O)N(C)C	-1%	-7%
Cc1nc2sc(-c3ccccc3)cc2c(=O)n1-n1cccc1	nt	-8%
CCn1nc(C)c(/C=N\NC(=O)c2cccc(OC)c2)c1C	-4%	-14%
COc1ccccc1OCCNC(=O)C1CC(=O)N(c2cccc(SC)c2)C1 (configuration not stated)	-24%	-14%
O=C1CN(C(=O)CNCc2ccccc2)c2ccccc2N1	2%	-4%
COC(=O)CN(c1cc(Cl)ccc1OC)S(=O)(=O)c1ccc(OC)c(OC)c1	0%	-15%
CCN(CC)CC(=O)NCC1(c2ccccc2)CCOCC1	-7%	1%
O=C(O)c1ccc(COc2ccc3ccccc3c2/C=C2/NC(=O)N(Cc3ccc(F)cc3)C2=O)cc1	-6%	-6%
Cc1cc(NC(=O)CCC(=O)N(CCC(C)C)C(C(=O)NC2CCCC2)c2ccccc2C)no1 (configuration not stated)	-17%	-9%
CC1CCCC(NC(=O)CN2C(=O)NC(C)(c3cc(F)ccc3F)C2=O)C1C (configuration not stated)	i	-3%
COc1ccc(C2CC(c3ccccc3)=NN2C(=O)c2ccc(F)cc2)cc1 (configuration not stated)	-1%	-14%
CC[n+]1c(/C=C/Nc2ccccc2)oc2ccccc21	?	-25%
O=C(CN1CCCc2ccccc21)N/N=C/c1ccccc1O	?	?
CN(C)c1ccc(NC(=O)Cn2cc(S(=O)(=O)Cc3cccc(Cl)c3)c3ccccc32)cc1	-1%	?
Cc1cccc(NC2=NC3(CCCCC3)N=C(N)N2)c1C	nt	-3%
CC(C)C(=O)N1CCCCCCN1C(=O)C(C)C	i	-5%
Cc1ccccc1-c1nn2c(=O)cc(CN3CCN(S(=O)(=O)c4ccc(Cl)cc4)CC3)nc2s1	-15%	-9%
O=C(CCc1c[nH]c2ccccc12)NCc1ccco1	i	3%
N#Cc1c(Cn2cncn2)nc(=O)n(-c2ccc(Cl)cc2)c1N	i	-6%
O=C(NCC1Cc2cc(F)cc(-c3cnccn3)c2O1)c1cccc(Cl)c1 (configuration not stated)	-2%	-1%
Cc1cc(S(=O)(=O)N2CCOCC2)ccc1OCC(=O)NCCCn1ccnc1	-29%	-9%
CC(C)(C)NC(=O)CCC1COc2ccccc2O1 (configuration not stated)	-11%	-7%
COc1ccc(C(=O)/C=C/c2ccc(N(C)C)cc2)c(OC)c1	?	7%
C[C@@H]1CN([C@@H](C)CO)C(=O)c2c(c3ccccc3n2C)-c2ccccc2CO[C@H]1CN(C)S(=O)(=O)c1ccc(C#N)cc1	?	?
COc1cc(/C=N/O)cc(Br)c1OCc1ccc(Cl)cc1	?	?
CC(=O)c1c(C)[nH]c(C(=O)CSc2nnc(-c3ccccc3)n2Cc2ccc3c(c2)OCO3)c1C	nt	?
COc1ccc(CC(=O)Nc2ccc(C(=O)Nc3nccs3)cc2)cc1OC	-25%	-19%
CC(=O)c1ccc(Nc2cc(C)nc3c(C)cc(C)cc23)cc1	-30%	-25%
OCCC1CN(Cc2nc3c(s2)CCCC3)CCN1Cc1ccsc1 (configuration not stated)	i	-8%
Cc1cccc(OCc2nnc(SCC(=O)c3cccs3)n2C)c1C	-21%	-23%
Cc1c(C(=O)NCCN(C)C)oc2ccc(S(=O)(=O)N3CCC4(CC3)OCCO4)cc12	-18%	-13%
COc1ccc(C(CNC(=O)CCNS(=O)(=O)c2ccccc2)N2CCOCC2)cc1 (configuration not stated)	i	-4%
CCCN(CCC)S(=O)(=O)c1ccc(C(=O)N2CCn3c4c(c5cc(C)ccc53)CCCC42)cc1 (configuration not stated)	2%	-5%
C[C@H](CO)N1C[C@H](C)[C@H](CN(C)S(C)(=O)=O)OCc2ccccc2-c2c(n(C)c3ccccc23)C1=O	0%	-10%
O=C(C1CCCCC1)N(CCN1CCCC1)c1nc2ccccc2s1	-13%	-8%
The list continues:
SMILES	Vaccinia mCherry	Vaccinia Venus
Cc1ccc(C)c(N2CCN(C(=O)CCc3nnc4n(C)c(=O)c5ccccc5n34)CC2)c1	-13%	-7%
CC(C)(O)C(=O)N=Nc1c(O)[nH]c2ccccc12	4%	-2%
O=C(COc1ccc(Cl)cc1)NCCS(=O)(=O)N1CCN(c2ccc(F)cc2)CC1	3%[7.34 µM]	0%[7.34 µM]
O=C(NC1CCCCC1)c1ccc2c(c1)N(Cc1cccc(Cl)c1)C(=O)c1ccccc1S2=O (configuration not stated)	-7%	-10%
CCOC(=O)/C=c1\s/c(=C\c2ccc3c(c2)OCCO3)c(=O)n1CC(=O)NCC1CCCO1 (configuration not stated)	7%	13%
Fc1ccc(-c2cnn3c(-c4cccs4)ccnc23)cc1	-6%	-1%
CCOC(=O)N1CCN(Cc2nc3c(c(=O)n(C)c(=O)n3C)n2Cc2ccc(F)cc2)CC1	7%	4%
O=C(NC12CC3CC(CC(C3)C1)C2)C12CC3CC(C1)CC(n1cnc(Cl)n1)(C3)C2	nt	-10%
CC(C)C(=O)Nc1ccccc1C(=O)OCC(=O)c1ccc2c(c1)OCCO2	-9%	-11%
COc1ccc(CN2C(=NC(=O)C3CC3)SC3CS(=O)(=O)CC32)cc1 (configuration not stated)	-28%	-18%
Cn1ccc(=O)c2cc([N+](=O)[O-])ccc21	i	-7%
CCN(CC)C(=O)c1ccc(NC(=O)COc2ccccc2F)cc1	-11%	-21%
COc1ccc(-n2cnnc2SCC(=O)NC2CCCCC2)cc1	i	-22%
CCC(=O)N1CCc2cc(S(=O)(=O)NC(CC(C)C)C(=O)NCc3ccc(C)cc3)ccc21 (configuration not stated)	-22%	-10%
CS(=O)(=O)c1nc(S(=O)(=O)c2ccc(Cl)cc2)c(NCCCN2CCOCC2)s1	i[7.34 µM]	-25%[7.34 µM]
CSc1ccccc1C(=O)NC1CCCC1	-8%	-15%
CC(=O)c1ccc(OCCCC(=O)NC2CCCCC2C)cc1 (configuration not stated)	i	-5%
O=C(c1cnn2c(C(F)(F)F)cc(-c3ccco3)nc12)N1CCCCCC1	nt	-15%
CCc1oc(-c2ccc(OC)cc2)c(C(=O)OCCCCCO)c1C(C)OCCO (configuration not stated)	i	4%
Cc1ccccc1C(=O)NCCNC(=O)c1ccccn1	-12%	1%

A different layout for 5 compounds above.
compound,Vaccinia mCherry,Vaccinia Venus
Cc1cc(S(=O)(=O)N2CCOCC2)ccc1OCC(=O)NCCCn1ccnc1,-29%,-9%
CC(=O)c1ccc(OCCCC(=O)NC2CCCCC2C)cc1 (configuration not stated),i,-5%
N#Cc1c(Cn2cncn2)nc(=O)n(-c2ccc(Cl)cc2)c1N,i,-6%
Cc1ccc(C)c(N2CCN(C(=O)CCc3nnc4n(C)c(=O)c5ccccc5n34)CC2)c1,-13%,-7%
O=C1CN(C(=O)CNCc2ccccc2)c2ccccc2N1,2%,-4%

(continued)
SMILES	Vaccinia mCherry	Vaccinia Venus
Cc1nc2ccc(C(C(F)(F)F)(C(F)(F)F)C(F)(F)F)cc2[nH]1	-27%	-27%
O=C1CCC(=O)N1c1nc2nc(-c3ccccc3)cc(-c3ccccc3)n2n1	-1%	-17%
c1ccc(OCCSc2nnc3sc4ccccc4n23)cc1	i	-5%
CC(=O)N1N=C(c2ccc(Br)cc2)CC1c1cccc([N+](=O)[O-])c1 (configuration not stated)	-24%	-22%
O=C(CN(C(=O)Cn1nnc(-c2cccs2)n1)c1cnc2ccccc2c1)NCC1CCCO1 (configuration not stated)	-10%	-6%
C[C@H](CO)N1C[C@H](C)[C@@H](CN(C)C(=O)Nc2ccc3c(c2)OCO3)Oc2ccc(NS(=O)(=O)c3ccc(F)cc3)cc2C1=O	-29%	-18%
O=C(CCOc1ccccc1)Nc1cccc(S(=O)(=O)Nc2ccccc2Cl)c1	-29%	-19%
Cn1c(N2CCOCC2)nc2c1c(=O)n(Cc1ccc(Cl)c(Cl)c1)c(=O)n2C	nt	-25%
COCCNc1oc(-c2ccc(C)cc2)nc1C#N	-7%	-11%
CCOc1cccc(C(=O)Nc2ccc3oc(-c4ccncc4)nc3c2)c1	-20%	-12%
CCc1nnc(NS(=O)(=O)c2ccc(NC(=S)NC(=O)c3ccc(OC)cc3)cc2)s1	i	-11%
Cc1cc(SCC(=O)Nc2cccnc2Cl)nc2ccccc12	i	-9%
CC(=O)c1ccc(NC(=S)N2CC(C)CC(C)C2)cc1 (configuration not stated)	-10%	-4%
CC(=O)O[C@@]1(C(C)=O)CCC2C3C=C(Cl)C4=CC(=O)CC[C@]4(C)C3CC[C@]21C (some centres not stated)	-14%	-4%
S=C(NN=Cc1ccccn1)Nc1ccccn1	?	?
O=C1CSC(=NC(=O)c2ccccc2)N1	-21%	-9%
COc1ccc(NC(=O)c2cnc3sc(N4CCOCC4)nn3c2=O)c(OC)c1	2%	4%
CCOC(=O)c1sc2nc(C)c([N+](=O)[O-])c(COC)c2c1N	-11%	-15%
O=C(c1ccc([N+](=O)[O-])cc1)n1nc(-c2ccccc2)nc1NCc1ccc(F)cc1	-20%	-8%
O=C(CSCc1ccc([N+](=O)[O-])cc1)NCCSCc1ccccc1	-4%	-2%
CCOC(=O)C1CCCN(C(=O)c2[nH]c(C(F)(F)F)nc2-c2ccccc2)C1 (configuration not stated)	10%	-8%
CC(=O)c1cccc(N(CC(=O)O)S(C)(=O)=O)c1	-16%	-9%
Cc1cc(Nc2cc(C)on2)n2ncnc2n1	-3%	-3%
CN(C)c1ccc(/C=N/OC(=O)Nc2ccccc2Cl)cc1	i	-4%
FC(F)(F)c1cnc(-c2cnc(-c3ccccn3)nc2)c(Cl)c1	-8%	-7%
CCNC(=O)C(=O)NCC1OCCCN1S(=O)(=O)c1cccs1 (configuration not stated)	-1%	9%
COc1cc(C=O)ccc1OCc1ccccc1Br	-10%	0%
COc1cc(OC)c2ccc(=O)oc2c1C(CCN1CCCC(C)C1)c1ccc2c(c1)OCO2 (configuration not stated)	-14%	?
Fc1ccc(Nc2nnc(C(F)(F)F)s2)cc1	-6%	-15%

Already shown: an excerpt of the list.
SMILES	Vaccinia mCherry	Vaccinia Venus
FC(F)(F)c1cnc(-c2cnc(-c3ccccn3)nc2)c(Cl)c1	-8%	-7%
CCNC(=O)C(=O)NCC1OCCCN1S(=O)(=O)c1cccs1 (configuration not stated)	-1%	9%
COc1cc(C=O)ccc1OCc1ccccc1Br	-10%	0%
COc1cc(OC)c2ccc(=O)oc2c1C(CCN1CCCC(C)C1)c1ccc2c(c1)OCO2 (configuration not stated)	-14%	?
Fc1ccc(Nc2nnc(C(F)(F)F)s2)cc1	-6%	-15%
